Bioassay records as filed in PubChem.
PINK1 modulator: changes PINK1 expression; PINK1 immunofluorescence, high-content cytometry, 24 h; AID 624263; 410,000 tested, 0.2% active; Potency, µM (doses to about 76.6 µM), for the others: at the top dose activation (PINK1 increase), hits mostly activators; active = well fitted activation curve with a large enough effect; inconclusive = small, poorly fitted or top-dose-only effect; inactive = flat fitted curve, though single readings scatter; cell line not stated here;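 further: potency means the concentration at half of the fitted maximal effect; % of control where 0% means no effect; nearly all actives have a fitted effect of over 65% in size; a mitochondrial uncoupler was the plate control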
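Fluorescence from anti-PINK1 antibody, together with nuclear and cell stains, was scanned on a laser-scanning cytometer. Before staining, stable-line cells were incubated 24 hours with compounds at 5 concentrations; primary antibody 12 h at 10 degrees C.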
D2 ag: agonists of human D2 dopamine receptor (beta-arrestin); P14416; DiscoveRx PathHunter D2 beta-arrestin, luminescence, 90 min; 100% = 57 uM dopamine signal; activation, % (test concentration not listed); 360,000 tested, 0.084% active; AID 624465; in the data active = activation above about 40%; inconclusive = about 15% to 40%; inactive = below about 15%; further: compound concentration not given in the record; the text of the record calls up to 30% inactive
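Agonist mode: compounds alone added to overnight-plated D2 PathHunter cells for 90 min at 37 C, with 57 uM final dopamine (EC100) defining full response. Beta-arrestin recruitment detected by chemiluminescent reagent, read after 1 h at ambient temperature.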
CtBP-E1A inh: blocks the CtBP interaction with E1A | AlphaScreen GST-E1A/His-CtBP binding, 1536-well; stronger effect = lower value; control for the full effect not named in the record | activity change, % (test concentration not listed) | AID 651724 | 340,000 tested, 0.49% active; in the data active means activity change below about -65%; inconclusive means about -30% to -65%; inactive means above about -30%; further: on the % scale 0 is the no-effect control and ±100 the full control effect; compound concentration not given in the record
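Protein mix (5X: 125 nM each GST-E1A, His-CtBP) was incubated with pinned compound 2 h at 37 deg C in dark, in 50 mM Tris pH 8.0 buffer with 300 mM NaCl. Glutathione donor and nickel acceptor beads followed; AlphaScreen signal read after 1 h.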
TRPML1 blocker: human mucolipin-1 channel inhibition; Q9GZU1; TRPML1-inducible cells, Ca2+ dye fluorescence, FDSS; stronger effect = lower value; inhibition of EC80 agonist-evoked calcium signal; activity change, negative = inhibition, % (test concentration not listed); 390,000 tested, 0.02% active; AID 624415; in the data active means activity change below about -50%; inconclusive means about -30% to -50%; inactive means above about -30%;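 further: stimulus is agonist 54-4 at its EC80 concentration; on the % scale 0 is the no-effect control and ±100 the full control effect; compound concentration not given in the record; the text of the record puts the active cut at -80%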
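Calcium fluorescence in TRPML1-DL cells induced overnight with Tet: a 110 s read after compound pin addition, then a 110 s antagonist read after challenge with 54-4 at 4 uM final (EC80).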
Six1-Eya2 blk: inhibitors of human Six1/Eya2 interaction; Q15475+O00167; AlphaScreen GST-Six1/His-Eya2 binding, biochemical; stronger effect = lower value; control for the full effect not named in the record; activity change, % (test concentration not listed); 360,000 tested, 0.56% active; in the data active = activity change below about -65%; inconclusive = about -30% to -65%; inactive = above about -30%; further: on the % scale 0 is the no-effect control and ±100 the full control effect; compound concentration not given in the record
Target sequence (O00167 whole entry, looked up): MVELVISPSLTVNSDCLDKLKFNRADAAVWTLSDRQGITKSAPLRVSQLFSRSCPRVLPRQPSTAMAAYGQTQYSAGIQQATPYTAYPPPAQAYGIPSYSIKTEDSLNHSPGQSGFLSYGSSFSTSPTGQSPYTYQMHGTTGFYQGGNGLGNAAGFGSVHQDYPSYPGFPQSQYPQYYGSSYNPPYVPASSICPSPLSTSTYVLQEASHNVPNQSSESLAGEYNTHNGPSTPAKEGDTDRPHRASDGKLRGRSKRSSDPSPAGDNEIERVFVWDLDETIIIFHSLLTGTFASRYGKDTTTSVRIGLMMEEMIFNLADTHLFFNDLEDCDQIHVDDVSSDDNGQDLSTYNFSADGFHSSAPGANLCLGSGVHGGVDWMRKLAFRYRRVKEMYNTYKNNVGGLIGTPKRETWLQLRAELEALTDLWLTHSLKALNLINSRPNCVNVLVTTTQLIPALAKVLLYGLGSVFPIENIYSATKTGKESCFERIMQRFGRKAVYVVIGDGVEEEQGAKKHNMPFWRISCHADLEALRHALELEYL
Target sequence (Q15475 whole entry, looked up): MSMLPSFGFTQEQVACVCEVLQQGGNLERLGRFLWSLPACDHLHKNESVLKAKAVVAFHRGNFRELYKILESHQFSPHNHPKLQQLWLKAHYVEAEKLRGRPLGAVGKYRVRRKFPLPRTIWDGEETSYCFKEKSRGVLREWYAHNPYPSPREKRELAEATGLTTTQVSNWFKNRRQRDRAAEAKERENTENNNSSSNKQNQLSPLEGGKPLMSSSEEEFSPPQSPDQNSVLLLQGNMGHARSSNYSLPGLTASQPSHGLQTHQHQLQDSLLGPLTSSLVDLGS
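Six1/Eya2 binding was read as AlphaScreen signal after compounds were pinned into GST-Six1 plus His-tagged Eya2 (5X stock 250/500 nM) in pH 8.0 Tris/NaCl/TCEP buffer, beads added, then incubated 1 h, 37 C, dark.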
TRPML1 agonist: agonists of human TRPML1 channel. Q9GZU1. TRPML1-expressing cells, Ca2+ dye fluorescence, FDSS; host cell line not named in the record; reference of the full effect not given here. activation, % (concentration not given with the values). 410,000 tested, 0.12% active. AID 624414; in the data active = activation above about 50%; inconclusive = about 30% to 50%; inactive = below about 30%; further: 0% is about no effect; the text of the record puts the active cut at 80%
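Cells: TRPML1-DL, 1X Tet inducer, ~16 h at 37 degrees C/5% CO2. Dye: ABD Ca8 no-wash + quencher, 45-90 min RT. Read: 10 s baseline, compound add, 110 s agonist phase; 54-4 EC80 (4uM final), 110 s antagonist phase.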
* = called active by the depositor; ? = inconclusive; / = not tested or not shown; [ ] = remark or other dose.

| molecule | D2 ag | TRPML1 agonist | Six1-Eya2 blk | PINK1 modulator | CtBP-E1A inh | TRPML1 blocker |
| --- | --- | --- | --- | --- | --- | --- |
| CCN1C(=O)C(Cc2nc3ccccc3c(=O)n2-c2ccc(OC)cc2)c2cc(C)ccc21 (stereo not drawn) | / | 4.0 | / | 0.0% | / | 1 |
| Cc1cc(CN(C)C(=O)c2ccc(OC3CCN(S(=O)(=O)N(C)C)CC3)cc2)n[nH]1 | -0.1 | -0.4 | 2 | -0.4% | 1 | 4 |
| CCc1cccc(C)c1NC(=O)CN1CCN(S(=O)(=O)c2ccc(C(C)(C)C)cc2)CC1 | 0.1 | -0.5 | -10 | 22% | -2 | 31 |
| CCc1c(C)nc2ncnn2c1N1CCC(C(=O)NCc2ccc3c(c2)OCO3)CC1 | 0.5 | 0.6 | -3 | -2.3%[38.3 µM] | -2 | 20 |
| O=C(CSc1nccc(=O)[nH]1)Nc1cc(C(F)(F)F)ccc1N1CCOCC1 | 0.4 | -0.6 | 17 | -3.2% | -5 | 3 |
| CC(=Nc1ccccc1)Nc1ccccc1 | -2.6 | 0.6 | 4 | 3.7% | 7 | 5 |
| Cc1cc2ncn(C(=O)c3c(-c4ccccc4)noc3C)c2cc1C | 1.2 | 2.1 | 1 | / | 1 | 15 |
| O=C(Nc1ccc(Cl)cn1)Nc1ccccc1Cl | -4.1 | 0.7 | -1 | 6.8% | 2 | -6 |
| Cc1ccc(S(=O)(=O)N(CCC#N)C2CCCCC2)c2nsnc12 | -3.3 | 3.7 | 11 | -0.6% | 0 | -4 |
| CCc1c(C2(O)CCCCC2)[nH]c2ccc(C(F)(F)F)cc12 | 6.0 | -0.6 | -4 | ? | 6 | 31 |
| O=C(NCc1ccncc1)C(=O)NCC1OCCCN1S(=O)(=O)c1ccccc1 (stereo not drawn) | -2.6 | -0.6 | 8 | 0.1% | 4 | -1 |
| COc1ccc(OC)c(NC(=O)CCN2CCCCC2)c1 | -0.7 | -1.1 | 0 | 4.2% | 3 | -3 |
| CC(C)N(CCn1c(SCC(=O)Nc2cccnc2Cl)nc2ccccc2c1=O)C(C)C | -6.7 | 1.2 | -14 | 1.5% | 0 | -2 |
| CC(C)(C)OC(=O)N[C@@H](Cc1ccccc1)C(=O)N1CCC(C(=O)N[C@@H](Cc2c[nH]c3ccccc23)C(=O)O)CC1 | -4.7 | 3.8 | 1 | 1.4% | / | 18 |
| CCC(=O)c1ccc(OCC(=O)OCC(=O)c2cc(C)n(CC3CCCO3)c2C)cc1 (stereo not drawn) | -3.1 | 0.4 | -12 | 4.3% | ? | 0 |
| O=C(NCc1cccnc1)C(=O)Nc1nc(-c2ccccc2)cs1 | -2.6 | 0.5 | -1 | 2.5% | -4 | 40 |
| NNC(=O)c1cc(Cl)ccc1Cl | -4.2 | 0.1 | 6 | 3.3% | 18 | -18 |
| O=C(NNC(=O)C1CCC1)c1ccccc1F | -4.2 | -0.6 | 0 | -0.2% | -5 | 7 |
| CC(=O)c1ccc(OCc2cc(C(=O)N3CCC(Oc4ccccc4C)CC3)no2)cc1 | 1.8 | -0.1 | -1 | 0.2% | 5 | 12 |
| Cc1cc(C)n2nc(SCC(=O)c3cccs3)nc2n1 | 0.3 | 0.3 | 7 | 1.0% | -8 | 35 |
| Cc1csc(=O)n1CCC(=O)OCC(=O)NCc1ccc(F)cc1 | -1.2 | 0.9 | 8 | 0.5% | -3 | 16 |
| CN(Cc1cc(=O)n2ccsc2n1)C1CCCCC1 | -5.1 | -0.4 | 0 | -4.1% | -7 | 27 |
| O=C(c1[nH]c(C(F)(F)F)nc1-c1ccccc1)N1CCN(CCN2CCOCC2)CC1 | -3.3 | 0.1 | 0 | -0.4% | 0 | / |
| COc1ccc(CNC(=O)CN2CCN(S(=O)(=O)c3c(C)c(C)cc(C)c3C)CC2)cc1OC | 0.4 | 1.0 | -4 | 0.2% | -15 | 13 |
| CCc1ccc(C(=O)NC(=S)Nc2ccc3c(c2)OCCO3)cc1 | 0.0 | 2.7 | -28 | 3.0% | 1 | 3 |
| Cc1cc(F)ccc1S(=O)(=O)N1CCCOC1CNC(=O)C(=O)NCc1ccc2c(c1)OCO2 (stereo not drawn) | -2.0 | 0.6 | 1 | 3.0% | -3 | -7 |
| Cn1cc(CN2CCCC(C(=O)Nc3cccc(-c4cc5ccccc5[nH]4)c3)C2)cn1 (stereo not drawn) | -3.4 | 3.7 | -6 | 2.3% | -14 | 11 |
| COc1cccc(Oc2nc3c(c(=O)n(Cc4ccccc4Cl)c(=O)n3C)n2C)c1 | / | -0.9 | / | 3.5% | / | 8 |
| CSc1ccccc1OCc1cc(C(=O)N(C)Cc2nonc2C)no1 | 1.4 | -0.6 | 13 | 0.2% | 5 | 0 |
| O=C1CCCCC1S(=O)(=O)c1ccccc1 (stereo not drawn) | 1.5 | 0.1 | 4 | -0.5% | 2 | -2 |

Shown field by field: part of the list above.
Structure: Cc1cc(C)n2nc(SCC(=O)c3cccs3)nc2n1
  D2 ag: 0.3
  TRPML1 agonist: 0.3
  Six1-Eya2 blk: 7
  PINK1 modulator: 1.0%
  CtBP-E1A inh: -8
  TRPML1 blocker: 35
Structure: Cc1csc(=O)n1CCC(=O)OCC(=O)NCc1ccc(F)cc1
  D2 ag: -1.2
  TRPML1 agonist: 0.9
  Six1-Eya2 blk: 8
  PINK1 modulator: 0.5%
  CtBP-E1A inh: -3
  TRPML1 blocker: 16
Structure: CN(Cc1cc(=O)n2ccsc2n1)C1CCCCC1
  D2 ag: -5.1
  TRPML1 agonist: -0.4
  Six1-Eya2 blk: 0
  PINK1 modulator: -4.1%
  CtBP-E1A inh: -7
  TRPML1 blocker: 27
Structure: O=C(c1[nH]c(C(F)(F)F)nc1-c1ccccc1)N1CCN(CCN2CCOCC2)CC1
  D2 ag: -3.3
  TRPML1 agonist: 0.1
  Six1-Eya2 blk: 0
  PINK1 modulator: -0.4%
  CtBP-E1A inh: 0
  TRPML1 blocker: /

Following part.
| molecule | D2 ag | TRPML1 agonist | Six1-Eya2 blk | PINK1 modulator | CtBP-E1A inh | TRPML1 blocker |
| --- | --- | --- | --- | --- | --- | --- |
| COc1ccc(N(CC(=O)Nc2ccccc2OC)S(=O)(=O)c2ccccc2)cc1Cl | 1.4 | 0.9 | -8 | 5.3% | 3 | -18 |
| O=C(NCCc1ccco1)C(=O)NCC1OCCCN1S(=O)(=O)c1ccccc1 (stereo not drawn) | -1.0 | -0.4 | -2 | -1.7% | 3 | 43 |
| COc1ccc(OCC(=O)NC2CCCCCCC2)cc1 | -4.6 | 1.5 | 1 | -0.8% | 12 | -10 |
| OC(COc1cccc2ccccc12)CN1CCOCC1 (stereo not drawn) | -4.3 | 0.6 | 1 | -2.3% | -5 | 5 |
| O=C(CN1C(=O)NC2(CCCCC2)C1=O)Nc1ccc2c(c1)CCC2 | 6.4 | 0.0 | 6 | -2.9% | / | 2 |
| Cc1ccc(NC(=O)COc2ccc(-c3nn(C)c(=O)c4ccccc34)cc2)cc1 | / | 0.8 | / | 0.2% | / | 5 |
| Cc1ccc2nc(Cl)c3cc(C(=O)NCCCN4CCCC4)sc3c2c1 | 2.7 | -0.2 | -11 | -3.7% | -6 | -6 |
| C[C@@H](NC(=O)c1nc[nH]c1C(=O)N[C@@H](Cc1ccccc1)C(=O)OC(C)(C)C)c1ccccc1 | -1.0 | 0.7 | ? | 7.6% | / | 45 |
| O=C(NCCC1CC1(Cl)Cl)Nc1ccccc1 (stereo not drawn) | -3.7 | 0.1 | 5 | 3.6% | 4 | -13 |
| Cc1ccc(Nc2cc(-c3ccccc3)nc3ncnn23)cc1 | -2.7 | 0.1 | -1 | 5.1% | 2 | 25 |
| NS(=O)(=O)c1ccc2nc(NC(=O)COc3ccccc3)sc2c1 | / | -0.1 | / | 4.8% | / | -8 |
| Cc1nc(CCNS(=O)(=O)c2cccs2)cs1 | -1.2 | 0.1 | 11 | -0.1% | -3 | 10 |
| Cc1ccc(C(C)C)c(OCC(=O)Nc2ccc(-c3nc4ncccc4o3)cc2C)c1 | / | 0.5 | / | 1.6% | / | 20 |
| O=S(=O)(NCC(c1ccco1)N1CCc2ccccc2C1)c1ccc(F)cc1 (stereo not drawn) | 1.2 | -0.2 | -11 | 5.7% | 1 | -12 |
| CCOC(=O)CSc1nc2ccccc2c(=O)n1Cc1ccco1 | -1.6 | 0.4 | -4 | / | 15 | -6 |
| CCN(CC)S(=O)(=O)c1ccc(NC(=O)CN(c2cccc(F)c2)S(C)(=O)=O)cc1 | -2.1 | 1.4 | -1 | -1.2% | -11 | 7 |
| COc1ccc(N2C(=O)CC(Nc3ccc(C(=O)O)cc3)C2=O)cc1OC (stereo not drawn) | 3.4 | 0.7 | 2 | 3.0% | 2 | 14 |
| CC1=Nc2ccc(C)cc2/C1=C/c1c(N)n2nc(CC(=O)N3CCOCC3)sc2nc1=O | -7.9 | 4.2 | ? | -2.0% | / | -4 |
| CCOC(=O)N1CCc2c(sc3c2c(=O)n(CCc2ccccc2)c(=O)n3Cc2ccc(F)cc2)C1 | / | 2.7 | / | 2.9% | / | -25 |
| CSc1nc2cc(S(=O)(=O)N3CCCCC3)ccc2s1 | -0.6 | 1.7 | -12 | 2.4% | 0 | 10 |
| Cc1cc2nc(-c3ccccc3)c(Cc3cccc(Cl)c3)n2c(C)c1Br | / | -0.5 | -7 | ? | -13 | / |
| Cc1nnsc1-c1c(C(=O)Oc2ccccc2)c(C)nn1-c1ccccc1 | 4.9 | 0.2 | 4 | 2.2% | / | 1 |
| O=C(CCCNS(=O)(=O)c1cccc2nsnc12)NCCN1CCN(c2ccccc2F)CC1 | -3.0 | 0.4 | 10 | 0.5% | / | 8 |
| O=C1COc2ccc(-c3csc(NCC4CCCO4)n3)cc2N1 (stereo not drawn) | -3.9 | -0.6 | -4 | 2.8% | -8 | -9 |
| Cc1cc(NC(=O)CSc2nc3c(c(=O)n2-c2ccccc2)SC(C)C3)no1 (stereo not drawn) | 5.2 | 0.4 | 9 | 6.1% | 22 | -13 |
| COc1ccc(C(=O)NCC(=O)OCCOc2ccc(Cl)cc2)cc1OC | -0.6 | 1.1 | 5 | 1.1% | 0 | -5 |
| O=C(O)c1ccccc1C(=O)NC1Cc2ccccc2C1 | 1.1 | 1.0 | 6 | 3.3% | -3 | 29 |
| CN(Cc1ccccc1)Cc1nc2scc(-c3ccccc3)c2c(=O)[nH]1 | -1.6 | 1.8 | -6 | 3.7% | 2 | -6 |
| Cc1ccc(-n2nc3c([n+]2[O-])CCc2c-3no[n+]2[O-])cc1 | -0.9 | -1.3 | 1 | -4.6% | 2 | -3 |
| Cc1ccccc1CNC(=O)C(=O)NCC1OCCCN1S(=O)(=O)c1cccs1 (stereo not drawn) | -3.8 | 0.4 | -6 | -0.5% | -8 | 29 |
| Cc1ccc(-c2[nH]n3c(=O)c4c(nc3c2C)CCCC4)cc1 | -1.2 | 0.9 | -5 | / | 0 | -1 |
| COc1cc(NC(=O)CSc2nc3ccccc3c(=O)n2C)ccc1NC(=O)c1ccco1 | 2.3 | 2.9 | -3 | 15%[38.3 µM] | -4 | -4 |
| COCCn1c(CNC(=O)c2cc([N+](=O)[O-])ccc2Cl)nc2cccnc21 | / | -0.9 | / | -0.8% | / | 0 |

Rows are unselected; 1% or so of the library scored in one or more.
